# KCNQ2 pot: KCNQ2 (rat) channel potentiation; 310,000 compounds, 0.54% hits; O88943; CHO-K1 KCNQ2, FluxOR thallium flux fluorescence; hits give high values; B-score at 10 µM; AID 2239;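 active = fluorescence ratio B-score at least 3 SD of library B-scores, with initial fluorescence B-score within 3 SD, cut at about 5.3 in these data; same plate scores as AID 2156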;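 note: B-score of peak minus minimum over baseline fluorescence ratio after K+ and Tl+ stimulus; positive B-score means potentiation of KCNQ2 with more thallium influx and brighter signal; only the inactives scoring about 0 or higher are listed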
# Target sequence (O88943 whole entry, looked up): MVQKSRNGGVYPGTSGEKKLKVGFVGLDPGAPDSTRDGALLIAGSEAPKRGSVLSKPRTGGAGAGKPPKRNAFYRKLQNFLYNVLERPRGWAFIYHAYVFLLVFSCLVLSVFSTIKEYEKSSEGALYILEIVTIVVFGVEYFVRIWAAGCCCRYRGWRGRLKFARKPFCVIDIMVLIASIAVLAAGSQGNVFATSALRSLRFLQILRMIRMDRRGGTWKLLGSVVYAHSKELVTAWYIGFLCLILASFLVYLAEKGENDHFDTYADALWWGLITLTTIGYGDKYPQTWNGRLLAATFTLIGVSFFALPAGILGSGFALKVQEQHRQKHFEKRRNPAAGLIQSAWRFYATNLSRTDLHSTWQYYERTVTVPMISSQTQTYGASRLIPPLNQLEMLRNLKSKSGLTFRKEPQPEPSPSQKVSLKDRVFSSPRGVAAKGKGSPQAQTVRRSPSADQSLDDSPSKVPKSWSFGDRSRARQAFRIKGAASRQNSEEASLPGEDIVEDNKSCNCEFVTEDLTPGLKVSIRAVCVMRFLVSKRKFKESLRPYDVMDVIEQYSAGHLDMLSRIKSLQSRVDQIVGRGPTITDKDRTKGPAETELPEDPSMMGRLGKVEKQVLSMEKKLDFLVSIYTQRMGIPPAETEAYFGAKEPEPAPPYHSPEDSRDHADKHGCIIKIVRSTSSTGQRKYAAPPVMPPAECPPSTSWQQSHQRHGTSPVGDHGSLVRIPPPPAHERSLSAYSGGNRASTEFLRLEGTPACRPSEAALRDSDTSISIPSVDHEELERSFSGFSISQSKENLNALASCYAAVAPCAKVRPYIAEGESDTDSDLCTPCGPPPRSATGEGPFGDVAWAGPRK
# KCNQ2 pot baseline: second read-out of KCNQ2 pot, no call of its own (marks repeat the call); B-score; compound at 10 µM; measured here: initial fluorescence intensity artifact check;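 brightness before thallium and not channel activity; 0 = typical well and far values either way flag optical interference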
# Active calls of the source: *. A portion of the library; count on the stated rates, not on these rows.
SMILES	KCNQ2 pot	KCNQ2 pot baseline
COc1ccc(CNC(=O)C(=O)NCC2OCCN2S(=O)(=O)c2ccc(OC)c(OC)c2)cc1 (stereo unspecified)	0.26	0.16
Cc1cccc(N(C)C(=O)CCS(=O)(=O)c2cccc3nonc23)c1	0.09	-0.07
COc1ccc(NC(=O)N2CCCC2C(=O)NC2CCCC2)cc1 (stereo unspecified)	1.77	-0.01
NC(=O)c1ccc(NC(=O)Cc2csc(-c3ccccc3)n2)cc1	0.16	-0.07
COc1cc(C2=NOC(C(=O)NCc3ccccn3)C2)cc(OC)c1OC (stereo unspecified)	0.01	1.88
CSc1ccc(/C=C(\NC(=O)c2ccccc2)C(=O)NCCN2CCOCC2)cc1	0.19	-0.24
COc1ccc(OCC(=O)Nc2c(C(=O)N3CCC(N4CCCCC4)CC3)oc3ccccc23)cc1	0.88	-2.21
O=C(c1cnsn1)N1CCC(CO)(Cc2cccc(F)c2)CC1	1.88	-0.76
COc1ccc(-c2cc(C)no2)cc1S(=O)(=O)N1CCN(c2ccccn2)CC1	2.39	0.14
O=c1cc(-c2ccccc2)c2ccc(O)cc2o1	1.28	-0.05
Fc1ccccc1C(c1nnnn1Cc1ccc2c(c1)OCO2)N1CCN(Cc2ccco2)CC1 (stereo unspecified)	1.34	-4.28
CCc1ccc(-c2cc(C(=O)Nn3cnnc3)c3ccccc3n2)cc1	1.28	0.53
COc1ccc(-c2cc(C)no2)cc1S(=O)(=O)NCc1cccc(C)c1	0.27	-1.45
CCOc1cc(C(C(=O)NCC2CCCO2)N(C(=O)Cn2nnc3ccccc32)c2cccc(OC)c2)ccc1O (stereo unspecified)	0.55	-0.46
NS(=O)(=O)c1ccc(NC(=S)NC(=O)c2ccc(-c3ccccc3)cc2)cc1	0.1	2.25
Cc1c(Cl)cccc1NC(=O)Nc1ccc(C(N)=O)cc1	0.07	-1.42
Cc1nn(CC(=O)N2CCN(C)CC2)c(=O)c2ccccc12	2.32	-2.16
Cn1cc(Cl)c(C(=O)NC(=S)Nc2sc3c(c2C#N)CCCCC3)n1	2.29	3.29
O=C(C(Sc1ccccc1)c1ccccc1)N1CCOCC1 (stereo unspecified)	0.37	0.36
CCOc1cc2c(C#N)c(N3CCNCC3)nc(N)c2c(N)n1	1.43	0.01
O=C(O)CCN1C(=O)c2ccc(NC(=O)c3ccco3)cc2C1=O	1.07	0.03
C/C(=N\NC1=NCCN1)c1ccc(N)c([N+](=O)[O-])c1	2.04	-1.49
CC1Cc2ccccc2N1C(=O)CSc1ncccn1 (stereo unspecified)	0.05	-2.54
Cc1cc(C)cc(N(CC(=O)NC2CCCC2)C(=O)c2csnn2)c1	0.33	0.65
CCOC(=O)C1CN(S(=O)(=O)c2cc(OC)ccc2OC)C1	0.43	0.29
CC(=O)Nc1ccccc1NC(=O)C/C(C)=N/NC(=O)C1CCCCC1	0.17	1.52
COc1ccccc1NC(=O)C1=C(C)Nc2nc(CCCO)nn2C1c1ccc2c(c1)OCO2 (stereo unspecified)	0.41	-0.19
O=C(CN1CCN(S(=O)(=O)c2ccccc2[N+](=O)[O-])CC1)NC(=O)NCc1ccco1	0.41	0.1
CCOc1ccccc1C1C(C#N)=C(SCC(=O)OC)NC(=O)C1C(=O)OC (stereo unspecified)	0.08	1.27
Brc1ccc2[nH]c3c(NCc4ccccn4)ncnc3c2c1	3.09	0.08
COc1ccc(CSc2nnnn2-c2ccc(C(=O)O)cc2)cc1	0.4	0.99
CC(=O)Nc1nnc(C)s1	1.61	-0.02
CC1CCN(c2c(NCc3ccc(C(=O)NCCc4ccc(Cl)cc4)cc3)c(=O)c2=O)CC1	1.12	0.15
Cc1nn(C)c(Oc2ccccc2)c1CCNS(=O)(=O)c1ccc(F)cc1	0.77	-0.5
CCOC(=O)CNC(=O)CSc1nnc(NC(=O)c2ccc3c(c2)OCO3)s1	0.52	-0.69
Cc1ccc(S(=O)(=O)CCC(=O)OCC(=O)NC(=O)c2ccccc2)cc1	0.4	-0.59
Cn1cc(CN2CCN(c3ccc(Cl)cn3)CC2)c(-c2ccccc2F)n1	0.29	0.2
CC1(C)CC(=O)c2cnc(N)nc2C1	0.07	0.02
CCOC(=O)c1c(NC(=O)Cn2nc(C(F)(F)F)cc2C)sc(C)c1C	0.35	-0.01
O=[N+]([O-])c1ccccc1Oc1cnc2ccccc2n1	1.09	0.29
O=C1CCC([N+](=O)[O-])C(c2ccc(Br)cc2)N1 (stereo unspecified)	0.32	0.73
CC(=O)c1cc(Cl)ccc1OC(=O)c1ccco1	1.46	-0.83
FC(F)(F)c1cccc(N2CCN(Cc3cccnc3)CC2)c1	0.55	0.31
COc1ccc(C(CC(=O)O)NC(=O)C2CCCCC2)cc1 (stereo unspecified)	0.87	-1.31
Nc1cc(-c2ccccc2)n2c(n1)nc1ccccc12	0.28	-0.89
N#C/C(=C\N1CCOCC1)C(N)=O	0.77	0.85
N#Cc1ccc(OCCN2CCc3ccccc3C2)cc1	1.02	-0.76
Clc1ccc(Nc2ccccc2)nn1	1.16	-0.52
OC(COc1ccccc1)CN1CCN(Cc2ccc3c(c2)OCO3)CC1 (stereo unspecified)	0.41	0.51
CCOC(=O)CNC(=O)CSc1cc(C)nc2ccc(OC)cc12	0.63	0.29
CC(=O)NCCc1ccc(S(=O)(=O)N2CCOCC2)cc1	0.56	-0.26
CC1(C)CNC(=O)c2sc(N3CCCCC3)nc2C1	0.01	0.25
Cc1cc(Cl)ccc1NC(=O)Nc1c(C)n(-c2ccccc2)c(=O)n1C	1.51	-0.54
COc1ccc(N2CCN(C(=O)CCCNC(=O)Cn3cnc4sc(C)c(C)c4c3=O)CC2)cc1	0.1	0.22
Cc1c(N=C2N=C(NC(=O)c3cccs3)c3ccccc32)c(=O)n(-c2ccccc2)n1C	0.02	0.26
CCCCn1c(N)c(N(CC(C)C)C(=O)C2CCN(S(=O)(=O)c3ccc(C)c(C)c3)CC2)c(=O)[nH]c1=O	1.03	0.06

# Continuation:
SMILES	KCNQ2 pot	KCNQ2 pot baseline
CCCCOCCCNC(=O)Cc1cccs1	0.07	0.78
O=C(N/N=C/c1nn(-c2ccccc2)cc1-c1ccccc1)c1ccncc1	0.12	-0.04
COc1ccc(Cl)cc1N(CC(=O)N/N=C/c1ccc(OC(C)C)cc1)S(=O)(=O)c1ccc(C)c([N+](=O)[O-])c1	0.59	-0.87
O=C(COc1ccc(-c2nnco2)cc1)N1CCN(S(=O)(=O)c2ccccc2)CC1	0.1	1.67
O=C(N/N=C\c1cccnc1)c1cc(-c2ccc(Cl)s2)[nH]n1	2.4	-2.04
CN1C(=O)C(=O)N(c2cccc(C(F)(F)F)c2)C1=O	0.84	-0.08
Cc1cccc(C(=O)O/N=C/c2c(Cl)n(C)c3ccccc23)c1	0.05	-0.21
CCNS(=O)(=O)c1ccc(Br)c(OC)c1	1.4	-0.45

# An excerpt of these results, as labelled records:
> N#Cc1ccc(OCCN2CCc3ccccc3C2)cc1
  KCNQ2 pot: 1.02; KCNQ2 pot baseline: -0.76

> CC(=O)Nc1ccccc1NC(=O)C/C(C)=N/NC(=O)C1CCCCC1
  KCNQ2 pot: 0.17; KCNQ2 pot baseline: 1.52

> Cc1cccc(C(=O)O/N=C/c2c(Cl)n(C)c3ccccc23)c1
  KCNQ2 pot: 0.05; KCNQ2 pot baseline: -0.21

> Clc1ccc(Nc2ccccc2)nn1
  KCNQ2 pot: 1.16; KCNQ2 pot baseline: -0.52

# More entries.
SMILES	KCNQ2 pot	KCNQ2 pot baseline
O=S(=O)(NCC(Nc1ccc(Cl)cc1)c1ccccc1)c1ccccc1 (stereo unspecified)	0.88	-1.35
CCCNc1nc(C)cc(-c2cc(C(=O)NCc3ccccc3)on2)n1	1.04	1.06
Cn1c(=O)c2cc(S(=O)(=O)N3CCOCC3)ccc2n(C)c1=O	0.87	-0.63
Cc1cc(NC(=O)c2ccc3[nH]c(C)c(C)c3c2)ccn1	3.93	-1.05
CC(=O)N/N=C/c1cc([N+](=O)[O-])ccc1OCCOc1ccccc1	0.53	1.19
Cc1cc(C)nc(NS(=O)(=O)c2ccc(NC(=O)c3ccc(S(=O)(=O)N4CC(C)OC(C)C4)cc3)cc2)n1 (stereo unspecified)	1	-0.46
COc1ccc(-c2nsc3c(SCc4ccccc4)ncnc23)cc1	0.04	-0.98
Cc1ccc(OCCn2cnc3cc([N+](=O)[O-])ccc3c2=O)cc1	1.64	-0.02
Cc1cc(Cl)ccc1NC(=S)N1CCN(Cc2ccccc2)CC1	0.39	-0.11
CN(C(=O)COC(=O)c1ccc2c(=O)n3c(nc2c1)CCC3)C1CCS(=O)(=O)C1 (stereo unspecified)	0.79	0.49
O=C(c1ccc(NS(=O)(=O)c2ccc(F)cc2)cc1)N1CCOCC1	2.32	-1.75
NC(=O)CSc1nnc(-c2ccc3c(c2)OCO3)o1	0.34	1.67
Cc1nc(N)nc(N)c1/C=C/C(C)(C)c1ccc(Cl)cc1	2.52	-0.78
CC(C)c1nc2n[nH]c(N)c2c2c1CCCC2	2.17	-1.7
COc1ccc(/C=N/NC(=O)c2ccc(N)cc2)cc1Cn1cc([N+](=O)[O-])cn1	1.29	3.8
N#CCOc1nc(N2CCOCC2)nc(N2CCOCC2)n1	1.26	-0.34
O=C(CSc1ccc(-c2ccco2)nn1)Nc1ccccc1	0.19	0.38
O=C(Nc1ccc(-c2cn3ccccc3n2)cc1)c1ccco1	2.63	0.13
O=C(Nc1ccccc1)N1CCN(c2cccc(C(F)(F)F)c2)CC1	0.77	0.05
Cc1[nH]nc2ncc(C(=O)c3ccccc3O)cc12	0.27	-0.84
Cc1csc(N(C(=O)c2ccc(S(=O)(=O)N(C)C)cc2)c2ccccc2)n1	0.91	-0.88
CCCC(=O)c1c[nH]c(C(=O)NCc2ccco2)c1	0.03	-0.03
CCN1CCN(C(=O)Nc2cccc3ccccc23)CC1	0.98	0.96
O=C(NCc1ccc(F)cc1)C1C2C=CC3(CN(Cc4cccnc4)C(=O)C13)O2 (stereo unspecified)	0.17	-0.85
Cc1cc(OC(C)C(=O)NCc2cccnc2)c2c(C)cc(=O)oc2c1 (stereo unspecified)	0.26	0.4
N#CC(C(N)=O)=C1CCC2(CC1)OCCCCO2	0.22	-2.2
NC(=O)/C(=C/c1ccco1)C(N)=S	0.67	0
Cc1cc(Nc2cccc(F)c2)nc(-c2ccccc2O)n1	0.15	0.47
O=C(NCCc1ccco1)C(=O)NCC1OCCCN1S(=O)(=O)c1ccc(F)cc1 (stereo unspecified)	0.06	-0.02
CCC(=O)Nc1ccc(NC(=O)Cc2ccccc2)cn1	1.34	0.05
CCOC(=O)c1sc(NC(=O)CS(=O)(=O)c2ccc(C)cc2)nc1C	1.8	1.21
Cc1c(Cl)c(=O)oc2cc(OCC(=O)NCc3cccs3)ccc12	0.03	2.53
O=c1c2cccnc2[nH]c(=S)n1CCCN1CCN(c2ccccc2F)CC1	0.1	2.57
O=C(NCc1ccco1)C(c1ccccc1)N(C(=O)Cc1cccs1)c1cccnc1 (stereo unspecified)	0.1	-3.16
COc1cccc(C(=O)Nc2nnc(S(=O)(=O)N(C)Cc3ccccc3)s2)c1	1.12	0.94
COC(=O)c1ccc(NC(=O)CSC2=NC(=O)C(c3ccccc3)C(=O)N2)cc1 (stereo unspecified)	2.9	-3.08
CC(=O)O[C@H]1CC[C@]2(C)[C@H]3CC=C4[C@@H]5[C@@H](C)[C@H](C)CC[C@]5(C(=O)O)CC[C@@]4(C)[C@]3(C)CC[C@H]2C1(C)C	1.04	-0.32
CCNc1nc(ON=C(C)C)nc(N(C)C)n1	2.1	-0.6
CC1CCN(S(=O)(=O)c2ccc([N+](=O)[O-])cc2)CC1	0.94	-1.13
CCOc1ccc(S(=O)(=O)N2CCC(C(=O)NCC3CCCO3)CC2)cc1 (stereo unspecified)	1.01	1.62
COc1ccc(-c2nc3ccccc3c(=O)n2O)cc1	0.6	1.93
Cc1cc(C)n(-c2nc3ccccc3c(=O)n2OCC#N)n1	4.99	0.08
CCN(CC)c1ccc(/C=N/N2CCN(c3ccccc3OC)CC2)cc1	0.07	-0.75
Cc1ccc(NC(=O)/C(=C\c2ccco2)NC(=O)c2ccco2)cc1	0.42	4.59
O=C(O)COc1ccc(NC(=O)c2cccs2)cc1	1.18	0.99
O=[n+]1cc(-c2cc3ccccc3o2)n([O-])c2c1CCCC2	1.74	-0.63
Cc1cccc(C)c1NC(=O)CSc1ccc([N+](=O)[O-])cn1	1.27	0.29
COc1cc(C2=NOC(C(=O)NCc3cccnc3)C2)cc(OC)c1OC (stereo unspecified)	0.03	0.09
CC(=O)N1CCc2cc(S(=O)(=O)CCC(=O)Nc3cccc(F)c3)ccc21	0.96	0.05
CCOC(=O)CC(NC(=O)c1ccco1)c1ccccc1Cl (stereo unspecified)	0.04	0.68
CC(Nc1nc(-c2ccc(Cl)cc2)cs1)c1nc2cc(Cl)c(N3CCCCC3)cc2n1CCOCCO (stereo unspecified)	0.73	0.06
O=S(=O)(c1ccc(Cl)s1)N1CCN(CCc2ccccc2)CC1	0.56	0.88
Fc1ccc2nc(Nc3ccccc3)sc2c1	0.2	-0.29
CCC(C)NCCCCOc1ccc(Cl)cc1C (stereo unspecified)	1.22	-0.63

# For reference, some entries already given:
SMILES	KCNQ2 pot	KCNQ2 pot baseline
Fc1ccc2nc(Nc3ccccc3)sc2c1	0.2	-0.29
CCC(C)NCCCCOc1ccc(Cl)cc1C (stereo unspecified)	1.22	-0.63
